Bioassay records: PubChem, several laboratories
Autofluor counter: flagged as autofluorescent in microsphere protease counterscreen; compound autofluorescence counterscreen, microsphere flow cytometry; stronger effect = higher value; fluorescence intensity (concentration not given with the values); 360,000 tested, 3.1% active;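 active = at least 3 SD above the mean of all compounds, about 16000 in these data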;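 note: 100 nL of 1 mM stock went into each well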
PrP UTR inh: inhibition of PrP 5' UTR reporter expression; cell-based PrP 5' UTR mRNA reporter, plate reader; AID 488862; 340,000 tested, 0.35% active; inhibition, % (no concentration beside the values);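 active = every replicate at 50% or more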;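 note: 0 = median of the neutral control wells; tested in H4 reporter cells; numbers are from one replicate; inactives centre near -14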
* = called active by the depositor.

Sample of the layout:
SMILES	Autofluor counter	PrP UTR inh
Cn1c(-c2ccc(C#N)cc2)c(C#Cc2ccccc2)c2ccccc21	4046	-9.1
CC(C)(C)OC(=O)N(Cc1ccccc1)Cc1ccc(OCc2cccc(NC(=O)C3CC3)c2)cc1	3007	-11.7
CN(C)CCNc1ccc2ncn3c4ccc(O)cc4c(=O)c1c23	4258	93.1*
Cc1ccc(S(=O)(=O)Nc2ccc3c(c2)CC(=O)N([C@H](C)CO)C[C@@H](C)[C@H](CN(C)Cc2ccc(-c4ccccc4)cc2)O3)cc1	3577	-11.5
CC(=O)OC1C2(CC3N4C(=O)C5(CO)SSC4(CC31O)C(=O)N5C)OC(C)C(C)(C)C2=O (stereo unspecified)	3689	96.4*

The whole of this part, previewed entries included:
SMILES	Autofluor counter	PrP UTR inh
Cn1c(-c2ccc(C#N)cc2)c(C#Cc2ccccc2)c2ccccc21	4046	-9.1
CC(C)(C)OC(=O)N(Cc1ccccc1)Cc1ccc(OCc2cccc(NC(=O)C3CC3)c2)cc1	3007	-11.7
CN(C)CCNc1ccc2ncn3c4ccc(O)cc4c(=O)c1c23	4258	93.1*
Cc1ccc(S(=O)(=O)Nc2ccc3c(c2)CC(=O)N([C@H](C)CO)C[C@@H](C)[C@H](CN(C)Cc2ccc(-c4ccccc4)cc2)O3)cc1	3577	-11.5
CC(=O)OC1C2(CC3N4C(=O)C5(CO)SSC4(CC31O)C(=O)N5C)OC(C)C(C)(C)C2=O (stereo unspecified)	3689	96.4*
CC1CCN(CC[C@H]2CCCN2S(=O)(=O)c2cccc(O)c2)CC1	6460	-18.6
Cc1ccc(S(=O)(=O)N2[C@@H](c3ccc(Cl)cc3)C(C(=O)O)=CC[C@H]2c2cccc(C)c2)cc1	4161	-32.3
C=CC[C@H](CC(=O)N(CCO)Cc1ccccc1)C(=O)NC[C@H](OC(=O)[C@@H](CC=C)CC(=O)OC(C)(C)C)c1ccccc1	3575	-10.4
Oc1[nH]c2ccccc2c1N=Nc1c(F)c(F)c(F)c(F)c1F	3883	-16.2
CCN(CC)C(=O)c1ncn(C)c1C(=O)N(CC)CC	3726	-17.8
COC(=O)C1=C(c2ccc(Cl)c(C(F)(F)F)c2)C[C@@H]2CC[C@H]1N2C(=O)N1CCOCC1	3900	-20.1
C#CCOCCOCCOCCNc1nc(N2CCOCC2)nc(N2CCN(C(=O)[C@H](CCC(=O)O)n3cc([C@@H](N)CCCCN)nn3)CC2)n1	3187	-25.5
C#CCOCCOCCOCCNc1nc(N2CCN(C(=O)Cn3cc(CCCCN)nn3)CC2)nc(N2CCN(C(=O)[C@H](Cc3ccc(O)cc3)n3cc(CCO)nn3)CC2)n1	3565	-18.1
CC1(C)C[C@H](O)[C@]2(CO)[C@H](O)C[C@]3(C)C(=CCC4[C@@]5(C)CC[C@H](O)C(C)(C)C5CC[C@]43C)[C@@H]2C1 (stereo partly specified)	3562	-5.3
Fc1ccc(CN2CC[C@H]3C=CCc4cccc(c43)C2)cc1	4799	5.6
O=C1C[C@@H]2c3c(cccc3CN1Cc1ccc(Br)cc1)C[C@@H](O)[C@H]2O	3824	-6.8
C[C@@H]1O[C@@H](O[C@H]2[C@H](O)[C@@H](O)[C@H](Oc3c(-c4ccc(O)cc4)oc4cc(O)cc(O)c4c3=O)O[C@@H]2CO)[C@H](O)[C@H](O)[C@H]1O	4120	-15.8
Cc1ccc(SCCC(=O)N/N=C/c2cccnc2)cc1	4221	-18.7
CCN1C(=NCCc2ccc(Br)cc2)N[C@@H](c2ccccc2)[C@H](C(=O)OC)[C@H]1C	3799	-13.4
CCN1C(=O)[C@@H]2[C@@H](c3ccc(-c4ccc5c(c4)OCO5)c(OC)c3)N3CCC[C@@]3(C(=O)OC)[C@@H]2C1=O	4085	-23.9
CCC(C(=O)Oc1c(C(C)C)cccc1C(C)C)c1ccccc1 (stereo unspecified)	3387	-16.3
CCOC(=O)C1=CN2CCC[C@H]2CC1=O	4173	-7.5
COC(=O)C1=C(c2ccc(-c3ccccc3)c(F)c2)C[C@@H]2CC[C@H]1N2C(=O)NCCO	3867	-13.2
COc1ccc(NC(=O)Nc2cccc3c2O[C@@H](CN(C)CC2CCCCC2)[C@@H](C)CN([C@H](C)CO)C3=O)cc1	3236	-10.3
COC(=O)c1ccc(COc2ccccc2/C=N/Nc2cccc(C(=O)O)c2)cc1	4548	76.7*

Part of the list above in order of SMILES length, descending.
SMILES	Autofluor counter	PrP UTR inh
CCN1C(=NCCc2ccc(Br)cc2)N[C@@H](c2ccccc2)[C@H](C(=O)OC)[C@H]1C	3799	-13.4
COC(=O)c1ccc(COc2ccccc2/C=N/Nc2cccc(C(=O)O)c2)cc1	4548	76.7*
Cn1c(-c2ccc(C#N)cc2)c(C#Cc2ccccc2)c2ccccc21	4046	-9.1
Fc1ccc(CN2CC[C@H]3C=CCc4cccc(c43)C2)cc1	4799	5.6
CCN(CC)C(=O)c1ncn(C)c1C(=O)N(CC)CC	3726	-17.8
CCOC(=O)C1=CN2CCC[C@H]2CC1=O	4173	-7.5

Carrying on.
SMILES	Autofluor counter	PrP UTR inh
Cc1cc(NC(=O)NC(=O)c2ccccc2NC(=O)C(C)N)ccc1Oc1ncc(Br)cn1 (stereo unspecified)	3474	23.5
CC(C)(C)OC(=O)N(Cc1ccccc1)Cc1ccccc1OCc1cccc(NC(=O)C2CCC2)c1	3792	-15.5
O=C(Cn1cc(COc2c(F)c(F)cc(F)c2F)nn1)c1ccc(O)cc1	3850	-12.3
Cc1cc(C=O)sc1[B-](F)(F)F	3009	-2.9
C=C1C(=O)C23CCC4C(C)(C(=O)OC)CCCC4(C)C2CCC1(O)C3 (stereo unspecified)	2989	-22.2
COc1cc(/C=C2\Oc3ccc(C#Cc4ccc(O)cc4)cc3C2=O)cc(OC)c1	3062	-11.9
N#CC1c2ccccc2-n2nncc2CN1C(=O)CCc1ccccc1 (stereo unspecified)	3688	-21.3
CCCCCCSc1ccc([C@@H]2[C@@H]3C(=O)N(C)C(=O)[C@@H]3[C@]3(C(=O)OC)CCCCN23)cc1	3796	12.2
O=C(C[C@H]1C/C=C\CC[C@@H](Cc2ccc(F)cc2)C(=O)OC[C@H]2CCCN2C1=O)N[C@@H](CO)Cc1ccccc1	3983	-12.7
Cn1c(=O)c2[nH]c(CCC3CCCC3)nc2n(C)c1=O	3127	-7.3
CN(C)C(=S)N=c1ssc(=S)n1Cc1cccnc1	3607	-18.5
CCC/C(=C1/c2ccccc2C(=O)N1c1ccccc1)c1ccc(O[C@@H]2CCCCO2)cc1	3528	-10.1
C[n+]1cccc(C(=O)O)c1	5296	-33.9
CSc1ccccc1NP1(=O)OCC(C)([N+](=O)[O-])CO1 (stereo unspecified)	2867	-48.4
O=C(/C=C/c1ccccc1[N+](=O)[O-])Nc1cccc(S(=O)(=O)NC2=NCCCCC2)c1	4382	-7.2
CCN(C[C@H]1N[C@@](CC)(C(=O)OC)[C@H]2C(=O)N(Cc3ccccc3)C(=O)[C@@H]12)C(=O)Nc1ccc(C(F)(F)F)cc1	3551	-1.5
COC(=O)C1=C(c2cccc(C#N)c2)C[C@@H]2CC[C@H]1N2C(=O)NC(C)C	3954	-25.9
COc1ccc(NC(=O)N(C)C[C@H]2Oc3ccc(NS(=O)(=O)c4cn(C)cn4)cc3C(=O)N([C@H](C)CO)C[C@@H]2C)cc1	3950	-11.5
C/C(=C\c1ccc(C(=O)O)cc1)c1ccc2c(c1)C(C)(C)CCC2(C)C	5679	5.5
FC(F)(F)c1ccc(-c2cccc3c2C2CC3CCN2Cc2ccccc2)cc1 (stereo unspecified)	3551	-0.2
CCOC(=O)[C@H]1[C@H]2COc3ccc(OC)cc3[C@@H]2N2C(=O)CN(Cc3ccc(Cl)cc3)C(=O)[C@@]12C	3719	-13.4
CC[C@]12c3[nH]c4ccccc4c3CCN1C(=O)C(CC(=O)NCCCN(C)C)C[C@@H]2C(=O)N1CCN(C(=O)c2ccco2)CC1 (stereo partly specified)	3807	-25.6
O=C(CCCOC(=O)c1cccnc1Cl)c1ccc(Br)cc1	4106	-38.8
C=CC(=O)N1C/C(=C/c2ccc(F)cc2)C(=O)/C(=C\c2ccc(F)cc2)C1	3967	38.7
C=C1[C@@H](O)[C@H](Cc2ccccc2)N(Cc2ccccc2Br)S1(=O)=O	3077	-19.5

The list goes on.
SMILES	Autofluor counter	PrP UTR inh
COc1cc(/C=C/C=C2/CC/C(=C/C=C/c3ccc(O)c(OC)c3)C2=O)ccc1O	3836	-2.9
O=C1C=C(c2cccc(CO)c2)C[C@@H](c2ccc3c(c2)OCO3)C1	3954	-18.3
CCN1C(=NCC2CC2)N[C@@H](c2ccccc2)C(C(=O)OC)=C1C	4204	-3.9
COc1cc([C@@H]2CC=C(C(=O)O)[C@H](c3ccccc3F)N2S(=O)(=O)c2ccc(C)cc2)cc(OC)c1OC	4094	-9.9
COc1cc(F)c(C2=CC(=O)C[C@H](c3ccc(Cl)cc3)C2)cc1F	3001	-13.0
O=C1C=C(c2ccccc2)CO1	3594	-15.7
CCOC(=O)c1[nH]c(C)c(/C(C)=N\O)c1C	4439	-15.9
Cc1noc(C)c1NC(=O)Nc1cccc2c1O[C@H](CN(C)C(=O)NC1CCCCC1)[C@@H](C)CN([C@H](C)CO)C2=O	4090	-19.0
C#CCOCCOCCOCCNc1nc(N2CCOCC2)nc(N2CCN(C(=O)[C@H](CCCN=C(N)N)n3cc(C(N)[C@@H](C)CC)nn3)CC2)n1 (stereo partly specified)	3651	-8.1
CC(C)(C)CC(C)(C)c1ccc(O)c(Cc2ccc(Cl)cc2Cl)c1	6713	-12.2
O=C(N/N=C/c1ccc([N+](=O)[O-])cc1)C(=O)N1CCCC1	4357	-18.2
O=c1[nH]c(=O)n(C2OC(CO)C(O)C2O)cc1F (stereo unspecified)	3553	34.8
NC(=O)C[C@H](N)c1cn([C@@H](CC(N)=O)C(=O)N2CCNCC2)nn1	3808	-0.9
COc1ccc2o/c(=N/NC(=O)c3cccs3)c(C(N)=O)cc2c1	2116	-13.1
O=C(C[C@@H]1C/C=C/CC[C@H](Cc2ccc(F)cc2)C(=O)O[C@H](c2ccccc2)CNC1=O)NCCO	2863	4.3
O=C1CCCCC1Nc1ccc([N+](=O)[O-])cc1 (stereo unspecified)	4137	-8.0
CCOC(=O)[C@@H]1CSCCS(=O)(=O)N1	3256	-8.8
CCn1c(=NC(=O)CN2C(=O)CCC2=O)sc2c(C)cc(C)cc21	5990	-12.7
COc1ccc(NC(=O)N(C)C[C@H]2Oc3c(NC(=O)c4nc5ccccc5s4)cccc3C(=O)N([C@@H](C)CO)C[C@H]2C)cc1	4461	-20.9
O=C1NC(=O)C(Cc2ccc(O)cc2)N1 (stereo unspecified)	5306	-6.4
O=C(C[C@H]1C/C=C\CC[C@@H](Cc2ccc(F)cc2)C(=O)OC[C@H]2CCCN2C1=O)NCCO	3525	-12.1
O=C(N=Nc1c(O)[nH]c2ccccc12)Nc1ccccc1	3996	-92.8
O=C1C=C(/C=C/c2ccccc2)C[C@@H](c2ccc(F)cc2)C1	4237	-4.5
CCCN(Cc1nnc(-c2cccs2)o1)C(=O)CN1C(=O)NC2(CCCCC2C)C1=O (stereo unspecified)	2871	8.2
Cc1ccc(S(=O)(=O)N2CCCCC2)cc1NC(=O)c1ccccc1Cl	3758	-13.6

Next part
SMILES	Autofluor counter	PrP UTR inh
O=C(O)c1ccc(NC2=C/C(=N/S(=O)(=O)c3ccccc3)c3ccccc3C2=O)cc1	4135	-11.5
CC(=O)Nc1n[nH]c(=S)s1	2870	-11.1
COc1cc2c(c(OC)c1OC)-c1ccc(SC)c(=O)cc1C(NC=O)CC2 (stereo unspecified)	3872	50.4
O=[N+]([O-])c1ccc(COc2ccccc2CN2CCOCC2)cc1	3490	-25.8
Cc1nc2nc(SCc3ccccc3)nn2c(C)c1C	3638	-38.7
O=[N+]([O-])c1ccc(/C=N/N=C/c2ccc([N+](=O)[O-])o2)o1	3729	-11.9
COc1cc(C2c3cc4c(cc3OC(N3CCOCC3)C2C)OCO4)cc(OC)c1OC(C)=O (stereo unspecified)	3610	0.8
COc1ccc(C2C(C#N)=C(N)Oc3cc(C)[nH]c(=O)c32)c(OC)c1OC (stereo unspecified)	3338	-24.5
COc1ccc(C2CC(=O)Oc3cc(C)cc(C)c32)cc1 (stereo unspecified)	3763	-17.1

These rows are one share of the data, so the mix of outcomes need not match the whole.
